# RecA splice inh – Mtb RecA intein splicing inhibition; cell-free RecA intein splicing, fluorescence; inhibition, %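 (about 9 µM by stock and volumes)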; actives 0.75% (n = 290,000); AID 2221; in the data active means inhibition above about 30%; inconclusive means no clear call, values can overlap the other calls;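 further: 0% = vehicle wells and 100% = reference inhibitor control wells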
# Target sequence (P9WHJ3 whole entry, looked up, canonical isoform): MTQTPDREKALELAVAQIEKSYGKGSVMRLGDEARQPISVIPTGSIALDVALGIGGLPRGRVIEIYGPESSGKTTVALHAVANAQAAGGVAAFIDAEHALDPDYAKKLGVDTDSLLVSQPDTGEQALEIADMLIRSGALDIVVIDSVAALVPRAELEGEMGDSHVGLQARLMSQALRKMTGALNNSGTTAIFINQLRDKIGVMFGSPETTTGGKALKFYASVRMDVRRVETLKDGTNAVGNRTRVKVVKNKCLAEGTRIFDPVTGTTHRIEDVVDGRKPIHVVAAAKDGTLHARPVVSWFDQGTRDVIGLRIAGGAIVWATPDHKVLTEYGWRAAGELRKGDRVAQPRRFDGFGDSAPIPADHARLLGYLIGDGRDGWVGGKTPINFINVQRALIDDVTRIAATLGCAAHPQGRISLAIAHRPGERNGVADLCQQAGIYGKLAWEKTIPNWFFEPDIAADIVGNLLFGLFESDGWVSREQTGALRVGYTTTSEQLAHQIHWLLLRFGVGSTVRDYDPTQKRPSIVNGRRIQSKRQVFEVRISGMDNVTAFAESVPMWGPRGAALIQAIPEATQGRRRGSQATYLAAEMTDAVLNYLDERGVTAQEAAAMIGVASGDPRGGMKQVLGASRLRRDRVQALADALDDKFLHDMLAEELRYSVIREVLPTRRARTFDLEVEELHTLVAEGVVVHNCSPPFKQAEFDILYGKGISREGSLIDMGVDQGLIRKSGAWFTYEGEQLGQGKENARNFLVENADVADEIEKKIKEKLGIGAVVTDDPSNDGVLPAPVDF
# Mtb betalactam – beta-lactam sensitization of Mtb H37Rv | M. tuberculosis H37Rv growth with meropenem, percent inhibition; hits of this screen are not shown here | inhibition, % at 25 µM | actives 0.27% (n = 330,000) | AID 434955;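 active means about 74% or more and at least 40 points above the plate without the antibiotic, then above 30% in a dose series; inconclusive means first-round hits that could not be retested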;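 further: growth measured after seven days incubation then overnight dye step; 0% = bacteria only wells and 100% = bacteria with antibiotic; twin plates without the antibiotic show which effects depend on it; some results filed as inactive read as strong as hits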
# YopH inh – blocks Yersinia enterocolitica YopH tyrosine phosphatase; fluorescence Ex485/Em525; inhibition, %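 (about 10 µM by stock and volumes)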; actives 0.16% (n = 140,000);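 active means inhibition of 50% or more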;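 further: controls were vehicle for no effect and minimum signal wells for full effect; inactives centre near -20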
# Arbovirus inh – arbovirus infection inhibition | arbovirus infection cell-based antiviral screen | inhibition, % at 10 µM | actives 0.37% (n = 200,000);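 active means inhibition from about 30%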;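 further: bluetongue infection of BSR cells; cell survival read as ATP light after 72 h; 0% = infected wells without compound and 100% = uninfected wells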
# Mtb growth – M. tuberculosis H37Rv growth inhibitors, H37Rv strain (AID 1626); M. tuberculosis H37Rv growth inhibition; higher % means a stronger effect; one-dose inhibition, % at 10 µM; IC50 in µM for titrated hits; actives 0.95% (n = 220,000);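 active means confirmed in a dose series; inconclusive means inhibition above 80% but not taken into the dose series; inactive means below 80% or under 30% at every dose of the series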;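 further: bacteria incubated seven days before Alamar blue readout; 0% = bacteria only wells and 100% = bacteria with antibiotic wells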
# Arbovirus inh repeat – recorded beside Arbovirus inh, whose call it bears; inhibition, %; measured here: 10K subset replicate screen; many hits read low in the repeat;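 first of two repeat runs on a subset; 0% = infected and 100% = uninfected wells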
# An asterisk follows results filed as active; ? = inconclusive; · = not tested or not shown. Not all compounds are listed, so the mix of outcomes need not match the whole.
SMILES,RecA splice inh,Mtb betalactam,YopH inh,Arbovirus inh,Mtb growth,others
C#CCOCCOCCOCCNc1nc(N2CCN(C(=O)Cn3cc(CCCN=C(N)N)nn3)CC2)nc(N2CCN(C(=O)[C@H]([C@@H](C)CC)n3cc(CCC(=O)O)nn3)CC2)n1,0.5,-1.4,-13.7,-5.7,-15.1%,
COc1cc(Nc2nc3ccccc3nc2NS(=O)(=O)c2ccc([N+](=O)[O-])cc2)cc(OC)c1OC,20.8,-1.1,·,·,·,
CC(=O)Nc1sc2c(c1C(c1ccccn1)N1CCN(C)CC1)CCCC2 (centres undefined),-4.2,-4.3,·,-1.7,8.2%,
Cc1nc(-c2ccc(C(=O)Nc3cc(S(N)(=O)=O)ccc3C)cc2)cs1,-2.1,-2.5,·,·,·,
CC1=C(C(N)=O)C(c2ccccn2)n2nc(-c3ccccc3Cl)nc2N1 (centres undefined),-3.3,·,-14.0,7.2,-0.5%,Arbovirus inh repeat=-3.7
C=CCN1C(=O)c2ccc(C(=O)NCCc3ccc(OC)c(OC)c3)cc2C1=O,2.5,-3.4,·,·,·,
COC(=O)c1sccc1NC(=S)N1CCN(c2ccc(F)cc2)CC1,14.3,-0.5,-35.9,12.3,-6.1%,
Cc1ccc(C(=O)NCC(=O)NNC(=O)CN(C)S(=O)(=O)c2ccc(Cl)cc2)s1,-0.3,-14.0,·,·,·,
CCN(CC(=O)Nc1c(F)cccc1F)C(=O)COc1cccc2c1OC(C)(C)C2,2.7,2.3,·,·,·,
O=[N+]([O-])c1cccc(C(O)C23CN4CN(CN(C4)C2)C3)c1 (centres undefined),0.8,4.9,·,·,-0.2%,
CCc1ccc(NC(=O)c2noc(C(C)C)c2[N+](=O)[O-])cc1,2.6,12.3,·,0.9,11.5%,
Oc1oc(-c2ccc(Br)cc2)nc1/C=N/c1ccccn1,-4.1,2.0,·,19.5,9.0%,
Cc1ccc(NC(=O)CCc2nnc3ccc(N4CCC5(CC4)OCCO5)nn23)cc1F,-1.2,-0.4,·,·,·,
COc1cc(/C=N/N=C2/NC(=O)C(c3ccccc3)S2)ccc1O (centres undefined),-8.2,1.5,-20.0,1.3,·,
CC(=O)Nc1ccc(S(=O)(=O)NCCC(=O)NCc2ccncc2)cc1,-2.2,-4.9,·,·,·,
CC1CCN(S(=O)(=O)c2ccc3c(c2)oc(=O)n3CC(=O)N2c3ccccc3CC2C)CC1 (centres undefined),0.1,1.3,-26.2,1.0,·,Arbovirus inh repeat=-9.3
O=C(c1cc2ccccc2oc1=O)N1CCN(Cc2ccc3c(c2)OCO3)CC1,1.2,-11.6,-11.3,-0.8,-0.8%,
Fc1cccc(F)c1-n1c(CN2CCOCC2)csc1=S,-0.3,-6.6,·,4.6,0.1%,
CN(CC(=O)Nc1cccc(F)c1)C(=O)c1ccc(NC2CC2)c([N+](=O)[O-])c1,3.2,-4.6,·,·,·,
O=C(Nc1nnc(S(=O)(=O)N2CCCCCC2)s1)c1ccccc1Br,1.8,-4.3,·,·,·,
COc1c(N2CCN(C(=S)Nc3ccccc3)C(C)C2)c(F)cc2c(=O)c(C(=O)O)cn(C3CC3)c12 (centres undefined),·,·,-17.6,-2.9,?,
COc1ccc2[nH]c(=O)c(CN(CC3CCCO3)C(=S)Nc3ccc(C)cc3)cc2c1 (centres undefined),-2.1,4.7,·,5.6,10.3%,
CCCCC(=O)Nc1ccc(NC(=O)CC)cc1OC,·,2.1,-71.9,1.5,6.9%,
CNC(=O)c1cn(-c2ccc(Cl)cc2)c(=O)c2ccccc12,-1.2,0.2,·,6.4,-5.0%,

# Next section, overlapping the part above by 5 compounds.
SMILES,RecA splice inh,Mtb betalactam,YopH inh,Arbovirus inh,Mtb growth,others
O=C(Nc1nnc(S(=O)(=O)N2CCCCCC2)s1)c1ccccc1Br,1.8,-4.3,·,·,·,
COc1c(N2CCN(C(=S)Nc3ccccc3)C(C)C2)c(F)cc2c(=O)c(C(=O)O)cn(C3CC3)c12 (centres undefined),·,·,-17.6,-2.9,?,
COc1ccc2[nH]c(=O)c(CN(CC3CCCO3)C(=S)Nc3ccc(C)cc3)cc2c1 (centres undefined),-2.1,4.7,·,5.6,10.3%,
CCCCC(=O)Nc1ccc(NC(=O)CC)cc1OC,·,2.1,-71.9,1.5,6.9%,
CNC(=O)c1cn(-c2ccc(Cl)cc2)c(=O)c2ccccc12,-1.2,0.2,·,6.4,-5.0%,
COc1ccc(OCCSc2nnc(C(C)NC(=O)c3ccccc3F)n2C)cc1 (centres undefined),-2.2,5.3,·,3.3,2.6%,
O=CN1CCN(C(=O)c2cccc([N+](=O)[O-])c2)CC1,-3.2,-6.5,·,·,·,
O=C(CN(c1ccc(F)cc1)S(=O)(=O)c1ccccc1)NC1CCCCCC1,0.4,-8.1,·,·,·,
COCCCn1c(Cc2csc(Nc3cccc(Cl)c3)n2)nnc1SCC(=O)OC,1.5,1.9,-25.4,5.8,-1.3%,
NC(=O)c1ccccc1OCCOc1ccc(Br)cc1,-0.3,1.3,·,·,·,
Cn1c(NCc2cccc(Br)c2)nc2ccccc21,7.0,?,-33.8,19.4,-2.3%,
CCOC(=O)c1ccc(S(=O)(=O)NNC(=O)c2cccc(N(C)C)c2)cc1,-1.4,18.3,·,5.1,5.7%,
Cc1cccc(NC(=O)CSCC(=O)Nc2ccc(S(=O)(=O)N3CCOCC3)cc2)c1,1.7,0.7,·,·,·,
COCCNC(=O)COC(=O)c1nsc(Cl)c1Cl,-1.3,1.9,-34.3,0.4,-4.0%,
Cc1onc(-c2c(F)cccc2Cl)c1C(=O)N(C)CC(=O)Nc1cccc(F)c1,0.4,-5.0,·,·,·,
CCOc1ccc(C2C3=C(CCCC3=O)OC(N)=C2[N+](=O)[O-])cc1 (centres undefined),0.5,2.6,·,·,-15.6%,
FC(F)(F)c1cccc(CON=C2CCN(c3ncc(C(F)(F)F)cc3Cl)CC2)c1,8.1,10.5,-36.0,8.3,-2.9%,
CSCC(C)N1CCC(CO)(CCc2ccccc2)CC1 (centres undefined),-1.2,-2.3,·,0.0,-2.3%,
O=C1NC(=O)/C(=C/c2cccc(O)c2)N1,1.4,8.7,·,·,9.0%,
COc1ccc(CCC(=O)Nc2ccc3c(c2)OCO3)cc1OC,6.1,0.6,·,·,·,
COc1cccc(OC)c1C(=O)Nc1ccc(C)cc1C(=O)c1ccccc1,5.3,-1.0,-23.9,-5.7,-4.2%,
O=C(CSCc1ccc(Br)cc1)NCCc1ccccc1,1.9,9.4,·,·,·,
O=C(NC1CCN(Cc2ccccc2)CC1)c1ccccc1OCc1ccccc1Cl,5.8,93.2,·,·,·,
COc1ccc(N2CCN(C(=O)CN3C(=O)c4ccccc4S3(=O)=O)CC2)cc1,2.5,7.2,0.9,-2.4,-4.8%,
CCc1ccc(N(CC(=O)NC(C)C)C(=O)CCC(=O)Nc2ccccn2)cc1,-1.1,5.3,·,·,·,
CCc1noc(C)c1C(=O)NNC(=O)c1ccc(F)cc1,-0.8,-9.9,·,·,·,
CC(CNS(=O)(=O)c1ccc(Br)cc1)CN(C)C (centres undefined),-0.3,-5.7,·,·,-0.6%,
COc1cccc(NC(=O)c2ccccc2Br)c1,0.7,6.1,·,·,·,
O=C(NCCN1CCCCC1)Nc1ccc(Cl)cc1,2.0,-2.0,·,·,·,
COc1cccc(-c2nc(=S)c3c(n2CCCO)CCCC3)c1,1.1,-3.7,11.3,-0.2,-6.9%,
Cc1onc(-c2ccccc2Cl)c1C(=O)N(Cc1nc(-c2ccccc2)no1)C1CCCCC1,1.3,-8.1,-12.1,-7.2,15.4%,
COc1cccc(-n2cc(C(=O)NCCCOC(C)C)c3ccccc3c2=O)c1,-1.8,-6.2,·,·,·,
CCOC(=O)c1c(CSc2ccccc2)oc2cc(Br)c(O)c(CN(C)C)c12,0.2,-0.9,·,·,2.0%,
O=C(COC(=O)c1cnccn1)Nc1cccc2ccccc12,3.0,-2.6,·,-5.0,-7.3%,
COc1cc(OC)c(OC)cc1CN1CCSCC1,0.2,-2.6,·,·,·,
Cc1ccc(NC(=O)c2cc([N+](=O)[O-])ccc2NCc2cccnc2)cc1,5.9,6.8,-36.7,-2.8,1.1%,
CCCc1nnc(NC(=O)CCC(=O)N2CCN(Cc3ccc(OC)c(F)c3)CC2)s1,-1.0,1.7,·,·,·,
O=C(CCn1c(=S)oc2ccccc21)Nc1cccc(O)c1,-0.9,10.7,·,-1.8,5.7%,
O=C1NCCCC1C(=O)N/N=C/c1cccc([N+](=O)[O-])c1 (centres undefined),-7.6,-6.1,·,·,-0.9%,
CC(C)(C)NC(=O)c1ccc(NC(=O)c2ccccc2-c2ccccc2C(=O)O)cc1,-3.4,15.0,·,·,·,
C/C(=N\Nc1cc(C)nc(-c2ccccc2O)n1)c1ccccc1,7.7,21.9,·,1.3,6.8%,
COc1ccc(-c2cc(C(=O)N(C)Cc3cccc(OC)c3OC)c3ccccc3n2)cc1OC,6.4,0.2,·,·,·,
CC(C)CCc1noc(CN(CC2CCC2)CC2CCCO2)n1 (centres undefined),0.5,4.5,·,·,7.2%,
CCOC(=O)c1cc(S(=O)(=O)Nc2ccc(F)cc2F)cn1C,0.3,4.0,·,·,·,
COc1cc(OC)nc(S(C)(=O)=O)n1,-1.2,-4.0,-3.4,12.9,-0.4%,
CC1(C(=O)OCC(=O)Nc2ccccc2)CC1(Cl)Cl (centres undefined),-5.2,2.2,·,5.2,6.6%,
O=[N+]([O-])c1ccc(N/N=C/c2sc(N3CCOCC3)nc2-c2ccccc2)c(S(=O)(=O)Nc2ccccc2Cl)c1,·,·,·,-18.1,?,
COc1ccc(NC(=O)CSc2ccccc2)cc1S(=O)(=O)N1CCOCC1,0.8,0.5,·,·,·,
COC(=O)COc1c(Cl)cc(C(c2c(C)[nH][nH]c2=O)c2c(C)[nH][nH]c2=O)cc1OC,95.7*,0.1,·,·,·,
Cc1sc2nc(SCC(=O)NCc3ccco3)n(CCc3ccccc3)c(=O)c2c1C,0.3,-6.2,-27.6,7.1,4.7%,
CCCCC(=O)Nc1ccc(NC(=O)c2ccc(C)c([N+](=O)[O-])c2)cc1OC,2.4,-8.4,-10.8,-3.0,9.2%,
NC(=O)c1cc2cc(Br)ccc2o/c1=N/NC(=O)c1cccc(F)c1,-0.7,9.3,·,·,·,
O=C(O)CSc1nc(-c2ccccc2)nc2c1CCCC2,-0.5,-5.4,·,·,12.9%,
Cc1ccccc1NC(=O)c1c(-c2ccccc2)noc1C,·,-7.5,-40.7,-3.5,0.4%,
COc1ccc(C(C)=O)cc1CN1C(=O)NC2(CCCCC2)C1=O,0.6,-10.1,-5.5,2.4,0.8%,
CC(C)(C)OC(=O)CN1C(=O)S/C(=C\c2ccc(-c3cccc(C(=O)O)c3)o2)C1=O,-58.0,3.4,·,·,·,
CCc1ccc(N(CC(=O)Nc2ccc(OC)cc2OC)S(C)(=O)=O)cc1,2.1,-6.2,-7.0,3.0,-10.4%,
Brc1ccc(N=Nc2ccc3ccccc3n2)cc1,1.2,82.7,·,·,31.3%,
C=CCc1cccc(OC)c1OCCOCCNCCO,·,2.1,-14.9,3.7,0.6%,
Cc1ccccc1NC(=O)c1ccc(CN2CC(=O)N3CCCCC3C2=O)cc1 (centres undefined),-1.2,-4.0,·,·,·,
Cc1nn(-c2ccccc2)c(C)c1/C=C1\C(=O)N(C)C(=S)N1C,5.7,3.8,·,26.1,5.3%,
CCOC(=O)c1ccc(NC(=O)NNC(=O)CCc2ccc(OC)cc2)cc1,0.1,-2.7,·,·,·,
Cc1ccc(C(=O)/C=C/Nc2ccc(S(=O)(=O)Nc3cc(C)nc(C)n3)cc2)cc1,-22.7,21.4,·,·,·,
COc1cc(C(=O)Nc2nccs2)ccc1OCc1c(C)noc1C,1.9,21.6,-24.1,2.6,9.2%,
COC(=O)N1C(=O)[C@](c2ccccc2)(C2CCCC2)N1C(=O)OC,5.8,17.6,·,·,·,
# The results go on.
SMILES,RecA splice inh,Mtb betalactam,YopH inh,Arbovirus inh,Mtb growth,others
COC(=O)CC1SCCNC1=O (centres undefined),-0.8,-8.3,6.1,3.1,-3.0%,
CC1=CC(=O)OC1Cc1ccncc1 (centres undefined),-2.9,1.9,-51.1,5.6,0.1%,
NS(=O)(=O)c1ccc(CCNC(=O)C2CCN(S(=O)(=O)c3cccc4cccnc34)CC2)cc1,-3.9,-6.6,·,·,·,
Cc1cc(C)cc(OCC(=O)OCC(=O)NCc2cccs2)c1,1.6,-1.7,-23.2,-6.2,2.7%,
Cc1c2cnn(CC(=O)NCc3ccccn3)c(=O)c2c(C)n1Cc1ccccc1,-0.3,-8.1,·,·,·,
Cc1cccc(C(=O)OC2CCN(C)CC2)c1,1.0,-10.3,·,0.4,-4.2%,
CCOC(=O)C1CCN(CC(O)COc2ccc(C(=O)CC)cc2)CC1 (centres undefined),·,-9.6,22.8,-3.6,-3.8%,

# Screening data: PubChem, several laboratories
